High-throughput results from PubChem BioAssay.
Anaer choline gr: inhibitors of anaerobic choline-dependent gram-negative bacterial growth; Gram-negative bacterium anaerobic choline minimal medium, absorbance growth; active compounds read low; many inactives read as strong as hits in the columns shown; AID 1963822; calls only; actives 0.2% (n = 55,000);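 active = growth z-score on choline under -2 at 7 or 20 h with little or no fall on glycerol, limits in tiers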;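 also: stock transfer was 300 nL into about 50 µL; the organism is E. coli; final concentration not given here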
Anaer choline gr early: second read-out of Anaer choline gr, no call of its own (marks repeat the call); z-score; measured here: choline growth z-score, timepoint 1;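 score of optical density at 7 h as mean of two plates; lower means less growth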
* = called active by the depositor; i = inactive; & = joins results of further samples. An excerpt, so the mix of outcomes need not match the whole.

| SMILES | Anaer choline gr | Anaer choline gr early |
| --- | --- | --- |
| O=S1(=O)C[C@H](NC2CCCCC2)[C@@H](S(=O)(=O)c2ccc(F)cc2)C1 | i | -1 |
| COc1cccc2sc(N(CCCN(C)C)C(=O)c3ccccc3Cl)nc12 | i | 0 |
| Cc1ccc(N(Cc2nc3nc(C)cc(C)n3n2)S(=O)(=O)c2ccc(Cl)cc2)cc1 | i | 0.07 |
| CC(C)C(=O)NCCCc1nc2ccccc2n1C(C)c1ccccc1 (stereo unspecified) | i | 0.19 |
| Cc1cc2n(n1)CCCN2Cc1ccc(C(=O)NCc2ccccc2Cl)cc1 | i | 0.77 |
| Nc1cc(C(=O)O)ccc1N1CCOCC1 | i | -0.34 |
| Oc1ccccc1C1=Nc2ccccc2N=C(c2cccc(F)c2)C1 | i | 0.78 |
| c1cc(-c2csc(C3CC3)n2)cc(-c2noc(-c3ccc4c(c3)OCO4)n2)c1 | i | 1.4 |
| O=C(Nc1ccccc1Cl)N1CCN(CCn2c(C(F)(F)F)nc3cccnc32)CC1 | i | 0.42 |
| Cc1ccc(C(=O)N2CCCC2c2c(C)noc2C)s1 (stereo unspecified) | i | 0.23 |
| CCc1ccc(NC(=O)NCCCn2c(-c3ccncc3)nc3cccnc32)cc1 | i | -0.38 |
| COc1ccccc1-n1ccn2c(=O)[nH]nc2c1=O | i | 0.55 |
| Cc1cc(C)n(-c2nc(C)c(C(=O)N(C)CCO)s2)n1 | i | -0.42 |
| O=C(NC1CC1)c1snc(-c2ccccn2)c1NC(=O)C1CC1 | i | 1 |
| CCCCC[C@H](O)/C=C/[C@H]1C(=O)C[C@H](O)[C@@H]1C/C=C/CCCC(=O)O | i | -0.16 |
| CC(=O)Nc1ncc2c(n1)CC(c1ccc(N(C)C)cc1)CC2=O (stereo unspecified) | i | 0.26 |
| CC(C)c1cc(C2CCCN2S(=O)(=O)c2cccc(Cl)c2)on1 (stereo unspecified) | i | 0.4 |
| CC(C)(C)C(=O)N1CCCN(Cc2nc(-c3ccc(Cl)cc3)no2)CC1 | i | 0.36 |
| COc1ccc2c3c1O[C@H]1C[C@@H](O)C=C[C@@]31CCN(C)C2 | i | 0.05&0.32 |
| Cc1nc(N(C)C)cc(N2CCN(C(=O)c3ccc(C(C)(C)C)cc3)CC2)n1 | i | 1.2 |
| CCN1C(=O)NC(c2ccccc2)C1=O (stereo unspecified) | i | 0.59 |
| CC(C)c1ccc(S(=O)(=O)N2CCCC(c3nc(-c4cccc(F)c4)no3)C2)cc1 (stereo unspecified) | i | 3.1 |
| CCn1nc2n(Cc3ccc(F)cc3)c(=O)c3nn(C)cc3n2c1=O | i | 0.23 |
| Cc1cc(C)cc(NC(=O)CSc2nnc3c4sc(N5CCCC5)nc4ncn23)c1 | i | -1.2 |
| O=C(Nc1cccc(-c2nnc(Cc3ccc4c(c3)OCO4)o2)c1)Nc1ccc2c(c1)OCCO2 | i | 1.1 |
| COc1ccc(Cl)cc1NC(=O)CCc1nc(CSc2nc3ccccc3s2)no1 | i | 3 |
| CCC(=O)Nc1ccc(S(=O)(=O)N2CCCC(C)(C(=O)NCc3ccccc3)C2)cc1 (stereo unspecified) | i | 0 |
| CCCCc1cc2ccccc2c(OCCN(C)C)n1 | i | -0.5 |
| Cc1ccsc1C1CCCCCN1S(C)(=O)=O (stereo unspecified) | i | -0.49 |
| Cc1cc(NC(=O)CN2c3ccccc3NC3=C(C(=O)CC(C)(C)C3)C2c2ccco2)no1 (stereo unspecified) | i | 0.08 |
| O=C1Nc2ccccc2Oc2cc(Cl)c(S(=O)(=O)N3CCCCC3)cc21 | i | 0.43 |
| CCN1CCCn2nc(C3CCN(C(=O)NCCCOC)CC3)cc2C1=O | i | -1.5 |
| COc1ccc(NC(=O)c2nnc(C3CCN(C(=O)c4ccc(OC)cc4OC)CC3)s2)cc1 | i | 0.85 |
| CC(C)NC(=O)Nc1cc2c(cc1N1CCOCC1)n(C)c(=O)n2C | i | -0.42 |
| CN1C(=O)c2cc(C(=O)NC3CC3)nn2CC1(C)C(=O)NC1CCCCC1 (stereo unspecified) | i | -0.75 |
| CCOC(=O)c1c(C)[nH]c(NC(=O)N2CCOCC2)c1C | i | -0.64 |
| Cc1noc(C)c1S(=O)(=O)N1CCCn2nc(-c3ccc(C(F)(F)F)cc3)cc2C1 | i | 1.3 |
| CCN(CC)S(=O)(=O)c1ccc(-c2cc(C(F)(F)F)on2)o1 | i | 0.24 |
| COc1cccc(NC(=O)CSc2nc3ccccc3n3c(C)nnc23)c1 | i | -1.4 |
| Cc1ccc(-c2nn3c(=O)cc(CN4CCN(C(=O)Nc5cc(C)ccc5C)CC4)nc3s2)cc1 | i | 0.68 |
| CCCn1c(=O)c2ccc(C(=O)NC(C)C)cc2n2c(=O)n(CC(=O)c3ccc(OC)cc3)nc12 | i | 0.24 |
| O=C(Nc1ccc2c(c1)OCO2)c1ccc2noc(-c3ccc(Cl)cc3)c2c1 | i | 1.3 |
| CCOC(=O)c1c(CN2CCOCC2)n(C)c2ccc(OC)c(S(=O)(=O)c3ccccc3)c12 | i | -1.6 |
| CCc1nc2ccc(C(=O)NCCN3CCN(C)CC3)cc2nc1CC | i | -0.5 |
| Cc1ccc(C)c(N2CCN(S(=O)(=O)c3cc(-c4cnn5c(C)cc(C)nc45)ccc3C)CC2)c1 | i | -2.3 |
| O=C(NC1CC1)c1cc2n(n1)CCCN(Cc1ccc(Cl)cc1)C2=O | i | 0.07 |
| CCCSc1nc2c(c(=O)[nH]1)C(c1ccc(C)cc1)C(C(=O)OC)=C(C)N2 (stereo unspecified) | i | 0.64 |
| CC(Sc1nc2nc[nH]c2c(=O)[nH]1)C(=O)O (stereo unspecified) | i | -0.32 |
| O=c1ccn(-c2cccc(F)c2)nc1-c1nc(-c2ccc(F)c(Cl)c2)no1 | i | -0.84 |
| CC(C)NC(=O)c1ccc(-c2nc3cc(NS(=O)(=O)Cc4cccc(F)c4)ccc3n2C)cc1 | i | 0.86 |

Additional entries follow.
| SMILES | Anaer choline gr | Anaer choline gr early |
| --- | --- | --- |
| NCCCNCCSP(=O)(O)O | i | 0.03&0.18&0.71 |
| O=S(=O)(NCC1CCCO1)c1ccc(N2CCCCS2(=O)=O)cc1 (stereo unspecified) | i | -1.4 |
| C=CCn1c(=O)c(C(=O)Nc2ccc(F)cc2F)c(O)c2ccccc21 | i | 0.19 |
| Cc1cc(C)n(CC(=O)NCCCc2ccccc2)c(=O)c1-c1nc(-c2ccc(Cl)cc2)no1 | i | -1.1 |
| O=C(CCc1nc(CSc2nnc(-c3ccccc3)o2)no1)Nc1ccc(F)c(Cl)c1 | i | -0.24 |
| C=CCSc1nc2c(c(=O)[nH]1)C(c1cc(Br)ccc1OC)CC(=O)N2 (stereo unspecified) | i | 0.15 |
| O=C(Cn1cnc(S(=O)(=O)N2CCCCC2)c1)N1CCN(c2ccccn2)CC1 | i | -0.44 |
| CCOc1ccc2c(c1)cc(C(=O)NCCOC)n2C | i | -0.1 |
| O=C(CNC(=O)c1ccc(Cl)cc1)NCc1cscn1 | i | -1.7 |
| COc1cccc(S(=O)(=O)Nc2cccc(-c3nnc(-c4ccccc4)o3)c2)c1 | i | 1.3 |
| CCc1ccc(NS(=O)(=O)c2ccc3[nH]cc(C(=O)N4CCc5ccccc5C4)c(=O)c3c2)cc1 | i | -0.28 |
| O=C(c1ccc(N2CCN(c3ccccc3F)CC2)nn1)N1CCc2ccccc21 | i | 0.55 |
| COc1ccc(NC(=O)c2ccc(C)c(NC3=NC4CS(=O)(=O)CC4S3)c2)cc1Cl (stereo unspecified) | i | 1.2 |
| Cc1c(N2CCN(C(=O)c3[nH]nc4c3CCc3ccccc3-4)CC2)c(=O)n(C)c(=O)n1-c1ccccc1 | i | 0.26 |
| COc1ccc(-c2nc3c([nH]2)c(=O)n(C)c(=O)n3C)cc1 | i | -0.18 |
| CC1CCCCN1Cc1cc(=O)n2[nH]c(-c3ccc(Cl)cc3)nc2n1 (stereo unspecified) | i | -1.4 |
| CCC(C(=O)Nc1ccccc1OC)n1nc(-c2ccccc2)ccc1=O (stereo unspecified) | i | -0.44 |
| CCc1csc2nc(C)cc(=O)n12 | i | -0.9 |
| COC(=O)c1c(-c2ccc(Cl)cc2)noc1Nc1ccc(OC)cc1OC | i | 0.54 |
| CCN(CC)CCNS(=O)(=O)c1cc(-c2nc(C)c(C)s2)sc1C | i | 0.86 |

Copied from the results shown, 7 compounds:
| SMILES | Anaer choline gr | Anaer choline gr early |
| --- | --- | --- |
| Cc1c(N2CCN(C(=O)c3[nH]nc4c3CCc3ccccc3-4)CC2)c(=O)n(C)c(=O)n1-c1ccccc1 | i | 0.26 |
| COc1ccc(-c2nc3c([nH]2)c(=O)n(C)c(=O)n3C)cc1 | i | -0.18 |
| CC1CCCCN1Cc1cc(=O)n2[nH]c(-c3ccc(Cl)cc3)nc2n1 (stereo unspecified) | i | -1.4 |
| CCC(C(=O)Nc1ccccc1OC)n1nc(-c2ccccc2)ccc1=O (stereo unspecified) | i | -0.44 |
| CCc1csc2nc(C)cc(=O)n12 | i | -0.9 |
| COC(=O)c1c(-c2ccc(Cl)cc2)noc1Nc1ccc(OC)cc1OC | i | 0.54 |
| CCN(CC)CCNS(=O)(=O)c1cc(-c2nc(C)c(C)s2)sc1C | i | 0.86 |

The results go on.
| SMILES | Anaer choline gr | Anaer choline gr early |
| --- | --- | --- |
| NC(=O)c1ncn([C@@H]2O[C@H](CO)[C@@H](O)[C@H]2O)c1O | i | -0.1 |
| CC(=O)Nc1ccc(NC(=O)c2cnn(-c3ccc(Br)cc3)c2)cc1 | i | -1 |
| CN1C(=O)c2cc(C(=O)NCc3ccc(Cl)cc3)nn2CC1(C)C(=O)NC1CCCC1 (stereo unspecified) | i | 0.41 |
| CC(C)c1nnc(NC(=O)c2cc(-c3ccccc3)on2)s1 | i | -1.3 |
| Cc1ccc(-c2nc3n(CC(=O)NCC4CCCO4)c4c(c(=O)n3n2)CCC4)cc1 (stereo unspecified) | i | 0.57 |
| CCC(CO)NCc1ccc(-c2ccc(F)cc2)o1 (stereo unspecified) | i | -1.2 |
| O=C(NC1CCCCC1)N1CCc2cc(S(=O)(=O)N3CCN(C4CCCCC4)CC3)ccc21 | i | -0.73 |
| C=Cc1ccc(CN2C(=O)C3CCCC3=Nc3cc(C)c(C)cc32)cc1 (stereo unspecified) | i | 1.3 |
| O=C(O)c1cc(N2CCN(CC(=O)N3CCOCC3)CC2)ccc1NC(=O)C1CCC1 | i | 0.14 |
| O=S(=O)(c1ccc(-c2nnc(C3CC3)o2)s1)N1CCCCCC1 | i | 0.27 |
| COc1ccc(C2CC(=O)N(Cc3ccc(F)cc3)C(=O)C2)cc1 | i | 0.14 |
| COc1cccc(-n2nnc3c(N4CCN(S(C)(=O)=O)CC4)ncnc32)c1 | i | 1.3 |
| CC(C)c1ccc(S(=O)(=O)N2CCC(N3CCN(Cc4ccccc4)C(=O)C3=O)CC2)cc1 | i | 0.54 |
| CCC1Oc2cc(S(=O)(=O)N(C)CC(=O)N3CCCC3)c(C)cc2NC1=O (stereo unspecified) | i | -0.85 |
| Cc1ccc(C)c(CSc2nnc3n(CCCOC(C)C)c(=O)c4cc(C)ccc4n23)c1 | i | 0.56 |
| Cc1ccc(NC(=O)COc2ccc(Cl)cc2-n2cnnc2)c(O)c1 | i | 0.54 |
| Cc1nc(-c2cc(S(=O)(=O)Nc3ccc(Cl)cc3F)c(C)s2)cs1 | i | 0.39 |
| COC(=O)c1cc(S(=O)(=O)NCCC(=O)NC2CCCCC2)cn1C | i | -0.18 |
| COc1cccc(CNC(=O)c2cc(S(=O)(=O)N3CCCC3)ccc2Cl)c1 | i | -2.2 |
| CCOc1ccc(Nc2nc(C)c(NC(=O)c3cccc(OC)c3)c(Nc3ccc(OCC)cc3)n2)cc1 | i | 0.27 |
| COc1ccc(Cl)cc1NC(=O)Cc1c(C)[nH]n(-c2nc(C)cs2)c1=O | i | -0.49 |
| Cc1sc(-c2nc(C(C)C)cs2)cc1S(=O)(=O)Nc1ccccc1F | i | 0.41 |
| CN1CCCN(c2ccc(NC(=O)c3ccccc3Cl)c(C(=O)O)c2)CC1 | i | -1.6 |
| Cc1ccccc1-c1cc2n(C)c(C)c(CCC(=O)NCC3CCCO3)c(=O)n2n1 (stereo unspecified) | i | -0.08 |
| Cc1cc2c(cc1C)NC1(CCCCCC1)C(=NCc1ccc3c(c1)OCO3)N2 | i | -0.57 |
| CC(C)c1nnc2c(SCC(=O)NC3CCCC3)nc3ccccc3n12 | i | 1.5 |
| Cc1ccc(C(=O)Nc2cnc(N3CCN(c4cc(Cl)ccc4C)CC3)c(C(=O)O)c2)cc1 | i | -0.3 |
| COc1ccc2c(c1)C(O)(c1c[nH]c3ccccc13)C(=O)N2 (stereo unspecified) | i | -1.5 |
| O=C(Nc1ccc(F)cc1F)N1CCC(n2cnc3ccc(F)cc3c2=O)CC1 | i | 0.46 |
| CCCN1CCN(CCNC(=O)c2cc3c(s2)CN(C2CC2)C3)CC1 | i | -1.1 |
| O=c1c(Cl)c(Cl)cnn1-c1ccccc1 | i | -4 |
| CC(C)NC(=O)Nc1cccc(-c2noc(-c3ccc4c(c3)OCO4)n2)c1 | i | -0.87 |
| CCCCc1nc2c3ccccc3n(CC(=O)N3CCN(c4ccccc4OC)CC3)c(=O)n2n1 | i | 0.62 |
| Cn1c(=O)n(C)c2cc(SC3CCCCC3)c(NC(=O)COc3ccc(Cl)cc3)cc21 | i | 0.13 |
| COc1ccc(CSc2nc3ncccc3o2)cc1 | i | -1 |
| CCCn1c(=O)c(C)cn2nc(N)nc12 | i | 1.2&0.27 |
| O=C(CSCc1nc2cccnc2n1C1CCCCC1)NCc1ccc(F)cc1 | i | 0.11 |
| C[n+]1cc2c3c(ccc2c2ccc4cc5c(cc4c21)OCO5)OCO3 | i | -3 |
| O=C(CCc1nc(CSc2nc3ccc(Cl)cc3[nH]2)no1)Nc1nncs1 | i | -1.2 |
| CCOC(=O)c1nc(NCCOC)c2c(CC)noc2n1 | i | -0.66 |
| COC(=O)c1sccc1NC(=O)c1cc2c([nH]c1=O)CC(C)(C)CC2=O | i | -0.24 |
| Cc1ccc(-c2nn3c(-c4cccnc4)nnc3s2)cc1C | i | -0.57 |
| OCCNCc1ccc(-c2cccc(C(F)(F)F)c2)o1 | i | -1.1 |
